KCNQ1 block: inhibitors of human KCNQ1 channel, primary screen, cell-based, thallium flux, high-throughput; AID 2642, 2010; CHO-K1 KCNQ1, FluxOR thallium flux fluorescence; stronger effect = higher value; hit rate 1.3% among 310,000; B-score at 10 µM; Potassium voltage-gated channel subfamily KQT member 1 (Homo sapiens), P51787;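 active means compounds whose thallium flux B-score, printed positive for inhibition, exceeds three library SD while starting fluorescence stays within three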;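 further: channel opened by potassium depolarization with thallium stimulus after 20 min compound exposure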
Target sequence (P51787 whole entry, looked up): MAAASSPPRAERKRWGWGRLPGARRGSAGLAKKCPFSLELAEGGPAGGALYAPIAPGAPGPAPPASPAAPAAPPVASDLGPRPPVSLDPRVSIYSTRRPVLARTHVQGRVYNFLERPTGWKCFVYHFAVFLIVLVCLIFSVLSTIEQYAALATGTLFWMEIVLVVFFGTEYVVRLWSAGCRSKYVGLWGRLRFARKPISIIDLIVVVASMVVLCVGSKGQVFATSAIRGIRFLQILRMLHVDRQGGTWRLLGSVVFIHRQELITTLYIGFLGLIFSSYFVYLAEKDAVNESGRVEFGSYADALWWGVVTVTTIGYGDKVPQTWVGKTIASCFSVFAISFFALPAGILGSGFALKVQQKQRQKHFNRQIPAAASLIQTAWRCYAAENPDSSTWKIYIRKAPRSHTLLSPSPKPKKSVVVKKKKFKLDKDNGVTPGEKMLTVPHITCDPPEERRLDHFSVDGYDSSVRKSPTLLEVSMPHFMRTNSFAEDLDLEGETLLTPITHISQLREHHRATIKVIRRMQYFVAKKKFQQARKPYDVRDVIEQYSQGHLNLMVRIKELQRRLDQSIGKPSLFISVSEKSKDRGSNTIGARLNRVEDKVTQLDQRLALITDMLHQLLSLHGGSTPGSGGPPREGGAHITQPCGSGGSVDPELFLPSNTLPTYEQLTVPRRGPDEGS
hERG protect: hERG rescue from dofetilide block, primary screen, cell-based, CHO-hERG, FluxOR thallium flux, dofetilide IC70; dofetilide IC70 present; AID 1511, 2009; activation (rescue from dofetilide block), less the hit threshold, % at 10 µM; hit rate 0.51% among 310,000; Voltage-gated inwardly rectifying potassium channel KCNH2 (Homo sapiens), Q12809;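 active means activation above the mean of controls blocked by dofetilide plus 5 SD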;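 further: thallium influx through hERG after potassium depolarization seen as dye fluorescence rise; in these data hits start at about 4.7%; inactives centre near -7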
Platelet DG rel: inhibitors of platelet dense granule secretion, primary screen, cell-based, MLPCN, human platelets; human platelet-rich plasma, SFLLRN dense granule ATP release, luminescence; inhibition, %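 (compounds screened at 7.5 µM in platelet-rich plasma)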; hit rate 0.22% among 300,000;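 active means mean replicate score, as percent of positive control, at or above 50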
TRPC4 block: inhibitors of mouse TRPC4 channel, primary screen, Fluo4 calcium, HEK293 TRPC4beta/mu-opioid cells | hit rate 0.39% among 300,000 | DAMGO-evoked Fluo4 calcium flux; stronger effect = lower value | B-score at 10 µM;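 active means B-score over 3 SD under the library average, no early fluorescence shift, positive overall ratio signal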
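Test system – stable TRPC4beta/mu-opioid receptor HEK293 cells · Probe or stimulus – DAMGO, a submaximal dose followed by a maximal one · Dosing – one concentration per compound · Signal – Fluo4 calcium fluorescence by kinetic imaging, 5 s 1 Hz baseline · Evaluation – per-well B score of integrated baseline-normalized Fluo4 ratio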
PolyA inhibitor: polyadenylation inhibitors in yeast reporter cells, primary screen, luminescence, S. cerevisiae; S. cerevisiae SKY197-pL101 polyadenylation reporter, beta-gal luminescence; efflux-impaired pdr1/pdr3 knockout yeast; score 100 = 6 SD above DMSO; calls only at 12 µM; hit rate 0.02% among 300,000; AID 1875, 2009;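 active means lowest replicate activity score at least 50, where 100 means six control SD above control mean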;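 further: yeast exposed to compound for 9 h at 30 °C; higher score means more reporter readthrough which indicates perturbed polyadenylation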
TRPC4 PAM: positive allosteric modulators of TRPC4, primary screen, cell-based, mouse TRPC4beta, HEK293 mu-opioid, Fluo-4 calcium. hit rate 0.42% among 310,000. B-score at 10 µM. AID 2227, 2009. Short transient receptor potential channel 4 (Mus musculus), Q9QUQ5. DAMGO EC20, Fluo-4 Ca2+ flux; stronger effect = higher value;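 active means B-score of calcium response area above 5 SD of library B-scores, with initial fluorescence ratio within 5 SD of library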;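 further: B-score of integrated fluorescence ratio over time as area under calcium response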
TRPC4 agonist: activators of mouse TRPC4 channel, primary screen, Fluo4 calcium, HEK293 TRPC4beta/mu-opioid cells; Short transient receptor potential channel 4 (Mus musculus), Q9QUQ5; Fluo4 calcium fluorescence; stronger effect = higher value; B-score at 10 µM; hit rate 0.49% among 310,000; AID 2237, 2010;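 active means B-score above 5 SD of library B-scores, and initial fluorescence ratio not above library mean plus 5 SD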;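 further: positive B-score marks a calcium rise read as TRPC4 activation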
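Technique: kinetic Fluo4 calcium fluorescence; Test system: TRPC4beta and mu-opioid receptor HEK293 stable cells; Measure: B-scored integrated calcium fluorescence ratio; Benchmarks: low control buffer alone, high control maximal DAMGO; Schedule: 45 min room-temperature Fluo4 loading, 110 s read.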
KCNQ1 pot: potentiators or activators of KCNQ1 channel, primary screen, cell-based, thallium flux, high-throughput | CHO-K1 KCNQ1, thallium flux FluxOR fluorescence; stronger effect = higher value | B-score at 10 µM | hit rate 0.35% among 310,000 | AID 2648, 2010;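 active means fluorescence ratio B-score, a plate-corrected score, at least three library SD, with initial intensity B-score within 5 SD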
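assay system = CHO-K1 cells stably expressing KCNQ1 | medium = assay buffer, equal DMSO in all wells | timing = 37 °C overnight plating, 90-min dark dye load, 20-min compound pretreatment | measured by = kinetic FluxOR thallium fluorescence, 10-s 1-Hz baseline, 110-s post-stimulus read | measure = fluorescence change relative to baseline, converted to B score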
KCNK3 block: human KCNK3 channel inhibitors, primary screen, CHO cells, FluxOR thallium flux, B-score; FluxOR fluorescence; stronger effect = lower value; B-score at 10 µM; hit rate 0.84% among 340,000;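 active means B-score under library mean minus 4 SD, starting fluorescence ratio at most library mean plus 5 SD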;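 further: more negative B-score means stronger inhibition of thallium flux through KCNK3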
KCNK9 inh: KCNK9 potassium channel inhibitors, primary screen, HEK293 cells, thallium flux. hit rate 1.2% among 310,000. Potassium channel subfamily K member 9 (Homo sapiens), Q9NPC2. B-score at 10 µM. FluxOR thallium flux fluorescence; stronger effect = lower value;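 active means ratio B-score over 3 SD below the library mean, with starting fluorescence within 5 SD of its mean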;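 further: negative B-score means less thallium flux so channel inhibition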
Target sequence (Q9NPC2 whole entry, looked up): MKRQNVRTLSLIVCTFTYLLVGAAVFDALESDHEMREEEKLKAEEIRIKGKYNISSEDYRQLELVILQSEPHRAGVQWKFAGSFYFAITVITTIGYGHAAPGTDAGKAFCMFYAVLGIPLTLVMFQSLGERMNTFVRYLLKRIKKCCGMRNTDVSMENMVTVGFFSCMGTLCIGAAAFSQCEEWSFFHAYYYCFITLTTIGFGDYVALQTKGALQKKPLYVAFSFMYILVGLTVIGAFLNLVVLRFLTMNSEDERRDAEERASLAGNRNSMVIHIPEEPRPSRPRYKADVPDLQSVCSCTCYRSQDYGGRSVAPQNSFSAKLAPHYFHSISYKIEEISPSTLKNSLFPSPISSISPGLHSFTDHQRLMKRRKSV
Starred values were filed as active, the others as inactive; i = inactive; . = not tested or not shown. Only part of the results is shown. The share of hits here may be higher or lower than overall.

SMILES	KCNQ1 block	hERG protect	Platelet DG rel	TRPC4 block	PolyA inhibitor	TRPC4 PAM	TRPC4 agonist	KCNQ1 pot	KCNK3 block	KCNK9 inh
Cc1ccc(C2=NNC(C(O)C(O)C(O)C(O)CO)S2)cc1 (stereo not drawn)	i	-5	-12	i	i	i	i	i	i	i
Cc1cc(-c2[nH]nc3c2C(c2cccc(O)c2)C(C#N)=C(N)O3)c(C)s1 (stereo not drawn)	i	-15	0	i	i	i	i	i	i	i
COc1cc(C(c2nnnn2C2CCCC2)N2CCc3ccccc3C2)ccc1O (stereo not drawn)	i	-20	-1	i	i	i	i	i	i	i
O=C1C2CCCN2C(c2cccs2)N1c1ccc(Cl)cc1 (stereo not drawn)	i	-6	3	i	i	i	i	i	i	i
CCN1CCN(c2c(Cl)cccc2NC(=O)c2ccc(Br)o2)CC1	i	-7	-19	i	i	11*	i	i	i	i
CC(=O)NC1(C(F)(F)F)C(=O)Nc2c1c(=O)[nH]c(=O)n2-c1ccccc1 (stereo not drawn)	i	3	-2	i	i	i	i	i	i	i
N#Cc1cn(CC(=O)N2CCCC2)c2ccccc12	i	-20	1	i	i	i	i	i	i	i
O=C(O)c1ccc2c(=O)n3c(nc2c1)/C(=C/c1cccc(O)c1)CC3	i	-4	1	i	i	i	i	i	i	i
CC12CCC(=O)N1C(C(=O)Nc1nc3ccc(Cl)cc3s1)CS2 (stereo not drawn)	i	-15	8	i	i	i	i	i	i	i
CCOC(=O)Nc1cccc(Nc2ccccc2)c1	i	-4	-1	i	i	i	i	i	i	i
CC1=CCC(C(=O)O)C(C(=O)Nc2nc3ccc(S(C)(=O)=O)cc3s2)C1 (stereo not drawn)	i	-5	-2	i	i	i	i	i	i	i
Cc1cc(O)c(NC(=O)c2ccc(Br)o2)cc1C	i	-12	-4	i	i	i	i	i	i	i
COc1ccc(N2C(N)=NC(N)=NC23CCCC3)cc1	i	-11	-5	i	i	i	i	i	i	i
COc1cccc(C2NC(=O)NC(C)=C2C(=O)Nc2ccc(C)cc2)c1 (stereo not drawn)	i	-2	2	i	i	i	i	i	i	i
COc1cccc(OCC(=O)NNC(=O)c2ccc(-c3ccccc3)cc2)c1	i	-13	6	i	i	i	i	i	i	i
COCCn1c(=NC(=O)CSCC(=O)NC2CCCCC2)sc2cc(OC)ccc21	.	.	.	.	.	.	.	.	i	.
O=C(O)c1cc(C(=O)O)cc(-c2ccc(/C=c3/sc4nc5ccccc5n4c3=O)o2)c1	.	.	.	.	.	.	.	.	i	.
c1ccc(-n2c(SCC3CCCCO3)nnc2-c2cnccn2)cc1 (stereo not drawn)	i	-4	-21	i	i	i	i	i	i	i
COc1ccc2nc(/C(C#N)=C\c3ccc(C(=O)O)cc3)[nH]c2c1	i	-5	-3	i	i	i	i	i	i	i
C#CCNc1nc(CC)nc2c1nnn2Cc1ccccc1F	i	-2	2	i	i	i	i	i	i	i
COc1ccc(OC)c(C2NC(=O)NC(C)=C2C(=O)Nc2ccc(C)cc2)c1 (stereo not drawn)	i	-8	3	i	i	i	i	i	i	i
Cc1cc2n(n1)C(c1c[nH]c3ccccc13)Nc1ccccc1-2 (stereo not drawn)	i	-10	-1	i	i	i	i	i	i	i
N#CC(c1ccccc1)(c1ncc(C(F)(F)F)cc1Cl)N1CCOCC1 (stereo not drawn)	6*	-11	0	i	i	i	i	i	i	i
Cc1ccc(CNC(=O)C2CN(S(C)(=O)=O)c3cc(Cl)ccc3O2)cc1 (stereo not drawn)	i	-9	0	i	i	i	i	i	i	i
CCn1c(Cc2ccccc2)nnc1SCC(=O)Nc1ccccc1	i	-13	6	i	i	i	i	i	i	i
Fc1ccc(/C=N/n2c(-c3cccs3)n[nH]c2=S)cc1	i	-13	-5	i	i	i	i	10*	i	i
COc1ccc(-c2nc(C#N)c(NCCc3ccccc3)o2)cc1	i	-3	-7	i	i	i	i	i	i	i
CCOC(=O)N1CCN(C(=O)c2ccc3c(c2)NC(=O)/C(=C\c2ccc(OC)c(OC)c2)S3)CC1	i	-16	2	i	i	i	i	i	i	i
CC1CCN(Cc2cc(=O)oc3ccc4ccccc4c23)CC1	i	-2	4	i	i	i	i	i	i	i
COC(=O)c1ccc(NC(=O)C2CCCN2S(=O)(=O)c2ccc(OC)cc2)cc1 (stereo not drawn)	i	-18	-6	i	i	i	i	i	i	i
O=c1cc(NC2CCCCC2)c2ccccc2o1	i	-5	0	i	i	i	i	i	i	i
O=C1C=C(NNC(=O)c2cccnc2)CC(c2ccco2)C1 (stereo not drawn)	i	3	-1	i	i	i	i	i	i	i
CC(=O)Oc1cccc(C(=O)Nc2cccc(C(=O)Nc3ccccc3C(=O)O)c2)c1	i	1	3	i	i	i	i	i	i	i
O=C(/C=C/c1ccc2c(c1)OCO2)c1ccco1	i	-16	18	i	i	i	i	i	i	i
COc1ccc(C2=CSC(/N=C/c3ccc(F)cc3)=NN2)cc1	i	1	14	i	i	i	i	i	i	i
CC1(C)Cc2ccccc2-c2nc(NCCCO)[nH]c(=O)c21	i	-11	-1	i	i	i	i	i	i	i
CCCOC(=O)Cn1cnc2scc(-c3ccc(OC)cc3)c2c1=O	i	-7	-1	i	i	i	i	i	i	i
O=C(Nc1ccc2oc(=O)ccc2c1)c1ccco1	i	-7	3	i	i	i	i	i	i	i
COc1ccc(/C=C/C(=O)NC(=S)N2CCCC(C(N)=O)C2)cc1 (stereo not drawn)	i	-7	-8	i	i	i	i	i	i	i
CCOC(=O)c1c(-c2ccccc2)nnn1-c1nc(OCC)nc(N2CCCCC2)n1	i	-23	-4	i	i	i	i	i	-14*	i
O=C(Nc1cccc(-c2nc3ccccc3[nH]2)c1)c1ccco1	i	-37	-7	i	i	i	i	i	i	-6.9*
Cn1c(CCN2CCCCC2)nc2cc([N+](=O)[O-])ccc21	i	-2	-2	i	i	i	i	i	i	i
CCOC(=O)C1=NN(c2ccccc2)C2C(=O)N(c3ccccc3OC)C(=O)C12 (stereo not drawn)	i	-8	15	i	i	i	i	i	i	i
N#C/C(=C\c1ccc(OC(=O)c2ccccn2)cc1)C(N)=O	i	-5	-3	i	i	i	i	i	i	i
Cc1cc2n(n1)C(c1cn(-c3ccccc3)nc1C)Nc1ccccc1-2 (stereo not drawn)	i	-20	-4	i	i	i	i	i	i	i
Cn1c(C(=O)NCCN2CCc3ccccc3C2)cc2c(=O)n(C)c3ccccc3c21	i	-19	5	i	i	i	i	i	i	i
COC(=O)C1=NN(c2cccc(C)c2)C2C(=O)N(c3ccccc3OC)C(=O)C12 (stereo not drawn)	i	-18	16	i	i	i	i	i	i	i
Cc1c(C=O)c2ccccn2c1C(=O)c1ccccc1Cl	i	-7	6	i	i	i	i	i	i	i
CC(N=Cc1ccccc1O)c1ccccc1 (stereo not drawn)	i	-8	-6	i	i	i	i	i	i	i
O=c1[nH]c2cc(Cl)ccc2n1-c1ccccc1	i	1	4	i	i	i	i	i	i	i
CCCc1nc(-c2cc3ccc(C)cc3[nH]c2=O)no1	i	-7	-3	i	i	i	i	i	i	i
COc1cccc(NC(=O)c2ccc(NS(=O)(=O)c3cccs3)cc2)c1	.	.	.	.	.	.	.	.	i	.
COc1nc(Nc2ccc3c(c2)OCO3)nc(OC)n1	i	0	-24	i	i	i	i	i	i	i
Cc1c(C(=O)Nc2cnccn2)oc2ccccc12	i	-9	-12	i	i	i	i	i	i	i
COC(=O)Oc1ccc(/C=C/C(=O)OC(C)C)cc1OC(=O)OC	i	6.6*	3	i	i	i	i	i	i	i
Cc1ccc(Nc2ncccc2C(=O)O)cc1C	i	-6	-3	i	i	i	i	i	i	i
COc1ccc(C/C(N)=N/OC(=O)c2cccs2)cc1	i	-3	13	i	i	i	i	i	i	i
COc1ccc(-c2ccc(NC(=O)c3ccc(Br)o3)cc2)nn1	i	-7	15	i	i	i	i	i	i	i
Cc1cccc(OCCNC(=O)CSc2ccc(C(F)(F)F)cc2[N+](=O)[O-])c1	i	-11	22	i	i	i	i	i	i	i
Cc1ccc(S(=O)(=O)N2CCCC2C(=O)OCc2nc3ccccc3s2)cc1 (stereo not drawn)	i	0	-1	i	i	i	i	i	i	i

5 compounds out of the list, arranged by length of the SMILES, smallest number first.
SMILES	KCNQ1 block	hERG protect	Platelet DG rel	TRPC4 block	PolyA inhibitor	TRPC4 PAM	TRPC4 agonist	KCNQ1 pot	KCNK3 block	KCNK9 inh
Cc1ccc(Nc2ncccc2C(=O)O)cc1C	i	-6	-3	i	i	i	i	i	i	i
COc1ccc(C2=CSC(/N=C/c3ccc(F)cc3)=NN2)cc1	i	1	14	i	i	i	i	i	i	i
O=C(O)c1ccc2c(=O)n3c(nc2c1)/C(=C/c1cccc(O)c1)CC3	i	-4	1	i	i	i	i	i	i	i
COc1ccc(OC)c(C2NC(=O)NC(C)=C2C(=O)Nc2ccc(C)cc2)c1 (stereo not drawn)	i	-8	3	i	i	i	i	i	i	i
Cn1c(C(=O)NCCN2CCc3ccccc3C2)cc2c(=O)n(C)c3ccccc3c21	i	-19	5	i	i	i	i	i	i	i

Shown in CSV form: part of the list above
canonical_smiles,KCNQ1 block,hERG protect,Platelet DG rel,TRPC4 block,PolyA inhibitor,TRPC4 PAM,TRPC4 agonist,KCNQ1 pot,KCNK3 block,KCNK9 inh
COc1ccc(-c2ccc(NC(=O)c3ccc(Br)o3)cc2)nn1,i,-7,15,i,i,i,i,i,i,i
Cc1cccc(OCCNC(=O)CSc2ccc(C(F)(F)F)cc2[N+](=O)[O-])c1,i,-11,22,i,i,i,i,i,i,i

Screening results: PubChem BioAssay, several laboratories
